Ecoli rRNA inh: reduced GFP signal of wild-type E. coli, primary screen, bacterial rRNA inhibitor project, GFP/RFP fluorescence, OD600, single point; E. coli WT GFP vs humanized-ribosome RFP mutants, 24 h; hits give low values; DMSO median 0, no signal -100; GFP signal change (wild-type ribosome), % (test concentration not listed); 350,000 tested, 1.6% active; AID 720706, 2013;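 active = significant combined selectivity score with lowered wild-type GFP, culture density cut under 30%, mutant RFP and density less affected; inactive = any of these conditions unmet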; note: one replicate is shown; some compounds called inactive have numbers as strong as hits
FGF22 binding: binders of human FGF22 protein, primary screen, FGF22 synaptogenesis inhibitor project, biophysical, thermal shift, single point. Fibroblast growth factor 22 (Homo sapiens), Q9HCT0. recombinant FGF22 thermal shift, SYPRO orange fluorescence; percent of sucrose octasulfate shift, DMSO zero. calls only at 9.99 µM. 340,000 tested, 1.5% active. AID 651658, 2012;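 active = melting point raised past a set limit in the mean and every replicate; three in four hits are not shown here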
Target sequence (Q9HCT0 whole entry, looked up): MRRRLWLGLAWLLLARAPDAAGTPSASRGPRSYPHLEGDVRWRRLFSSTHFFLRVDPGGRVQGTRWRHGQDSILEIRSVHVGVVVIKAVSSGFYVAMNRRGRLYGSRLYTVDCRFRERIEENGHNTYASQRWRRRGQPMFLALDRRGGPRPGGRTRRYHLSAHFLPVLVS
UCH37 DUB inh: inhibitors of human UCH37 deubiquitinase, primary screen, biochemical, Ub-AMC cleavage, fluorescence. purified proteasome/UCH37. inhibition, % (concentration not given with the values). 330,000 tested, 0.33% active;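 active = mean of two replicates above 20%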;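 note: 0% = compound-free wells with enzyme and 100% = wells lacking proteasome; stock transfer was 100 nL into about 20 µL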
Target sequence (Q9Y5K5 whole entry, looked up): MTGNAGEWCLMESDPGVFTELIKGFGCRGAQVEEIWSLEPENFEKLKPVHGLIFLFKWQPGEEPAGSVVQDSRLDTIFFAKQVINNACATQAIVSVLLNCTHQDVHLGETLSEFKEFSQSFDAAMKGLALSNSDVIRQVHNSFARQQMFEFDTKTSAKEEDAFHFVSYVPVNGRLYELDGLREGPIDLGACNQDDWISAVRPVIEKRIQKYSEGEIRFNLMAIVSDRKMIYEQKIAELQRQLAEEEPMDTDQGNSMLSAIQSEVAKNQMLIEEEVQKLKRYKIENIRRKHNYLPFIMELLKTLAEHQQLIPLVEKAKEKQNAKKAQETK
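System: Proteasome-associated human UCH37 deubiquitinase; Input: 0.15 nM proteasome in added enzyme buffer; Also added: Ub-AMC substrate from 1 µM stock; Incubation: 30 min compound-proteasome preincubation then 25 min substrate reaction, room temperature; Detection: fluorescence, ex 355 nm, em 460 nm; Read-out: % inhibition of Ub-AMC cleavage fluorescence; Benchmarks: no-proteasome and no-compound wells.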
Beta apoptosis: inhibitors of cytokine-induced beta cell apoptosis, primary screen, luminescence; INS-1E cytokine-induced death, ATP luminescence, 48 h; percent of positive-control rescue, neutral wells zero; protection from apoptosis, % (no concentration beside the values); 300,000 tested, 0.8% active;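 active = all replicates at 75% or more, or half of them and the mean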;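 note: 0% = cytokine-treated negative control wells and 100% = positive control rescue; higher means more ATP so stronger rescue from cytokine killing; wells of about 40 µL received 100 nL stock; the first replicate is given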
A1 inh: caspase 3/7 activation in MEF A1-2A-BIM cells, primary screen, A1 inhibitor project, cell-based, luminescence, HTS. Caspase-Glo 3/7 luminescence, 3 h; percent of clofoctol response, vehicle zero. caspase activation, % (test concentration not listed). 330,000 tested, 0.066% active. AID 2462, 2010;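 active = over half of replicate activation scores above 10%, or exactly half above 10 with the replicate mean above 10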;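 note: wells of about 30 µL received 50 nL stock; many hits fall short of the cut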
AF4-AF9 inh: inhibitors of AF4 peptide binding to AF9, primary screen, biochemical, AlphaScreen, biotin-AF4 peptide, FLAG-AF9, single point; inhibition, % at 10 µM; AID 651704, 2012; 350,000 tested, 0.47% active;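 active = every replicate reaching a set inhibition limit, whatever the replicate mean, cut at about 25% in these data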;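 note: 0% = plate neutral control median and 100% = total signal loss; the record names both 10 and 1 µM as test concentration; the first replicate is given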
Target sequence (P42568 whole entry, looked up): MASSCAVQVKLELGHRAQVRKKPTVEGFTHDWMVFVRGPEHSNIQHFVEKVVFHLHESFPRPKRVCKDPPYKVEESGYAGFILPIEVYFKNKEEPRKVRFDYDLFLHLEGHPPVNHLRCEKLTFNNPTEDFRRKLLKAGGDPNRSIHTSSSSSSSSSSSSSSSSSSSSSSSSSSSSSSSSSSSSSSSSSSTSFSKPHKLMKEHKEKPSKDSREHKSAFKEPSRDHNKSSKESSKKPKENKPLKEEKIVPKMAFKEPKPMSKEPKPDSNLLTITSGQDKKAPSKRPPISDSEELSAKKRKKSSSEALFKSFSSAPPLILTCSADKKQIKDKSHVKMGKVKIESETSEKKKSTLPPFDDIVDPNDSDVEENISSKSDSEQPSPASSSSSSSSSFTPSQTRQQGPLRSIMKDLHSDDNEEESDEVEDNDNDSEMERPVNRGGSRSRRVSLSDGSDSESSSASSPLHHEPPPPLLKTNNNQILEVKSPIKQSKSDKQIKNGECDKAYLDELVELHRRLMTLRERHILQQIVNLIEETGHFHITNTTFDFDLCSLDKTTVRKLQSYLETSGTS
T cruzi inh: inhibitors of intracellular T. cruzi growth, primary screen, luminescence, NIH3T3 host cells | T. cruzi beta-gal in NIH3T3, 90 h | inhibition, % (concentration not given with the values) | 300,000 tested, 1.4% active | AID 1885, 2009;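 active = mean inhibition across valid replicates above about 55%, limit read from the data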;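 note: signal also drops with host cell toxicity which is not excluded here; 0% = plate median of DMSO wells and 100% = zero luminescence signal; higher percent means less beta-gal luminescence so fewer parasites; stock transfer was 50 nL into about 50 µL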
E coli growth: E. coli growth inhibition, primary screen, OD600; AID 1053175, 2014; OD600 absorbance (concentration not given with the values); 330,000 tested, 0.21% active; Escherichia coli growth, 23 h; hits give low values;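 active = OD600 absorbance below the run mean of sample wells minus 3.6 SD, in any replicate, cut at about 0.56 in these data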;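 note: stock transfer was 300 nL into about 60 µL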
Ecoli rRNA inh OD600: second read-out of Ecoli rRNA inh, no call of its own (marks repeat the call); OD600 change, %; measured here: OD600 growth;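 optical density of the mix in the first replicate; 0 = DMSO median and -100 = no signal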
Ecoli rRNA inh RFP: recorded beside Ecoli rRNA inh, whose call it bears; RFP signal change, %; measured here: RFP humanized mutant strains;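 first replicate; 0 = DMSO median and -100 = no signal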
* = called active by the depositor; i = inactive; . = no result given. This is a subset. The share of hits here may be higher or lower than overall.

Below each compound: Beta apoptosis | E coli growth | FGF22 binding | Ecoli rRNA inh RFP | T cruzi inh | Ecoli rRNA inh OD600 | AF4-AF9 inh | Ecoli rRNA inh | A1 inh | UCH37 DUB inh
COc1ccc(N2CCN(C(=O)CNC(=O)c3ccco3)CC2)cc1
    -7.4 | 0.709 | i | -3.9 | -2.2 | 4.9 | 0.3 | -1.5 | 0.8 | 0.5
O=C(c1cccc(Oc2ccc([N+](=O)[O-])cc2Cl)c1)N1CCCCC1
    7.9 | 0.735 | i | -1.1 | 4.0 | 10.1 | 1.2 | 15.3 | 0.6 | 1.8
N#Cc1cccc(C(=O)OCc2cccc(S(=O)(=O)N3CCOCC3)c2)c1
    . | 0.706 | i | -1.4 | . | -1.6 | -4.2 | 0.3 | . | 3.5
CC(NC(=O)c1ccco1)C(=O)N(C)Cc1ccc(C(F)(F)F)cc1 (centres undefined)
    . | 0.65 | i | 1.4 | -1.0 | 5.0 | -2.8 | 4.2 | -0.5 | 2.2
Cc1ccc(-c2cc(-c3ccc(F)cc3)c(C#N)c(N)n2)o1
    -17.1 | 0.706 | i | 5.8 | -17.7 | -1.4 | -3.2 | 12.0 | 0.0 | -479.0
CC(Oc1ccc(/C=N/NC(=O)Cc2cccc3ccccc23)cc1)C(=O)O (centres undefined)
    -4.1 | . | i | 1.4 | -1.6 | -6.2 | 3.5 | 5.3 | 0.2 | .
CCn1c2ccccc2c2cc(CN3CCN(S(=O)(=O)Cc4ccccc4)CC3)ccc21
    -6.1 | 0.65 | . | . | 36.0 | . | . | . | 1.2 | -16.3
COc1ccc(CC(=O)Nc2ccc3c(C)cc(=O)oc3c2)cc1OC
    -3.2 | 0.651 | . | . | -2.2 | . | . | . | 0.6 | -92.2
CC(C)=C[C@@H]1C[C@H](C)[C@H]2CC[C@H](C)c3c(O)c(O)c(C)c1c32
    -9.3 | . | i | -2.3 | . | 5.4 | 3.8 | 1.6 | 0.5 | 2.0
COC(=O)c1cc(NS(=O)(=O)c2ccc(N3CCOCC3)c(N)c2)cc(C(=O)OC)c1
    5.0 | 0.722 | i | . | -5.2 | . | 1.5 | . | 0.0 | 1.7

Below each compound: Beta apoptosis | E coli growth | FGF22 binding | Ecoli rRNA inh RFP | T cruzi inh | Ecoli rRNA inh OD600 | AF4-AF9 inh | Ecoli rRNA inh | A1 inh | UCH37 DUB inh
O=C(CN1C(=O)S/C(=C\C=C\c2ccccc2)C1=O)N1CCCCC1
    10.1 | 0.707 | . | . | -2.1 | . | . | . | -1.1 | -1.9
Nc1nc(NCCOCCO)nc(Nc2cccc(F)c2)c1[N+](=O)[O-]
    13.0 | 0.691 | i | 2.4 | -21.0 | 15.4 | -0.5 | 21.4 | -1.2 | 13.5
Oc1ccccc1-c1nc2c3ccccc3c3ccccc3c2[nH]1
    5.9 | 0.693 | i | -0.2 | -1.2 | -8.5 | -6.4 | -13.2 | 0.0 | i
N=C1SC(CC(=O)Nc2ccc([N+](=O)[O-])cc2)C(=O)N1c1ccccc1 (centres undefined)
    -9.1 | 0.688 | i | -1.9 | 3.8 | -0.4 | 1.7 | -8.8 | 0.1 | 5.3
Cc1ccc(C(=O)N/C(=C/c2cccnc2)C(=O)NCc2ccco2)cc1
    -2.0 | . | . | . | -30.1 | . | . | . | 0.4 | 1.4
O=C(c1ccc2c(=O)n(Cc3ccccc3Cl)c(=S)[nH]c2c1)N1CCCC1
    1.1 | 0.665 | i | -1.4 | -12.9 | 8.4 | -2.7 | 3.4 | 1.5 | -1.0
O=C(O)CCCCCN1C(=O)C(O)=C(C(=O)/C=C/c2ccccc2)C1c1ccc2c(c1)OCO2 (centres undefined)
    -2.6 | 0.675 | i | -1.0 | -4.5 | 9.4 | -0.8 | 19.2 | -0.2 | 13.4
CC(NC(=O)COC(=O)c1ccc2c(=O)n3c(nc2c1)CCCCC3)c1ccccc1 (centres undefined)
    2.2 | 0.673 | i | 0.2 | . | 11.4 | 0.5 | 9.9 | 1.4 | -2.2
COc1ccc(CNC(=O)COC(=O)c2ccc3c(c2)OCCO3)cc1
    -4.1 | 0.754 | . | -2.2 | 4.0 | 14.4 | . | 1.4 | -0.2 | 1.3
CCCn1c2c(c(O)c(C(=O)NCCCN(CC)CC)c1=O)CCCC2
    -1.6 | 0.752 | . | . | -1.8 | . | . | . | -0.8 | 7.0

Below each compound: Beta apoptosis | E coli growth | FGF22 binding | Ecoli rRNA inh RFP | T cruzi inh | Ecoli rRNA inh OD600 | AF4-AF9 inh | Ecoli rRNA inh | A1 inh | UCH37 DUB inh
CC(C)NC(=O)C1CCN(C2CCN(Cc3nc4ccccc4s3)CC2)CC1
    -9.7 | 0.653 | i | 0.3 | 19.8 | 14.2 | -0.6 | 15.5 | 0.8 | 3.0
O=C(OCc1cccc([N+](=O)[O-])c1)c1ccncc1
    -4.7 | 0.74 | . | . | 3.4 | . | . | . | -0.2 | 2.5
O=C(Nc1ccccn1)C(NS(=O)(=O)c1cccc2nsnc12)c1ccccc1 (centres undefined)
    . | 0.685 | . | . | -7.0 | . | . | . | 0.1 | 4.8
O=C(COc1ccc(Cl)cc1)Nc1ccc(N2CCN(C(=O)c3ccco3)CC2)cc1
    -3.6 | 0.715 | i | -0.1 | -16.5 | 10.2 | 2.0 | 2.3 | -0.5 | 3.7
CN(C)S(=O)(=O)c1cc(NC(=O)CN2C(=O)NC3(CCCc4ccccc43)C2=O)ccc1Cl (centres undefined)
    -4.3 | 0.652 | . | . | -0.9 | . | . | . | -1.0 | 5.1
Nc1nc(SCC(=O)N2CCN(S(=O)(=O)c3ccc(Cl)cc3)CC2)n[nH]1
    -0.9 | 0.671 | i | -0.6 | -5.9 | 10.1 | 0.3 | 16.4 | -4.2 | -0.5
COC(CNc1ncnc2c1cnn2C)OC
    7.0 | 0.712 | i | -0.5 | -5.5 | 8.2 | 0.8 | 11.1 | 1.2 | 0.1
CC(C)NC(=O)N(C)C[C@H]1Oc2ccc(NC(=O)c3ccncc3)cc2C(=O)N([C@H](C)CO)C[C@@H]1C
    -11.2 | . | i | -1.3 | . | 10.1 | -1.1 | 5.8 | -2.9 | 1.6
c1ccc(C2C3=C(Nc4ncnn42)c2ccccc2CCC3)cc1 (centres undefined)
    2.1 | 0.666 | . | . | -6.4 | . | . | . | 0.5 | 3.6
Cc1cc(=O)oc2cc(OCC(=O)N3CCOCC3)c(Cl)cc12
    1.5 | 0.738 | i | -0.3 | . | 11.4 | -2.1 | 3.2 | 0.4 | i

Below each compound: Beta apoptosis | E coli growth | FGF22 binding | Ecoli rRNA inh RFP | T cruzi inh | Ecoli rRNA inh OD600 | AF4-AF9 inh | Ecoli rRNA inh | A1 inh | UCH37 DUB inh
Cc1cc(C)c(OCC(=O)N2CCN(c3ncc(C(F)(F)F)cc3Cl)CC2)c(C)c1
    -8.8 | 0.686 | i | -4.5 | 6.5 | 3.3 | -4.3 | -2.7 | 0.6 | -0.4
CCC(=O)Nc1cccc(NC(=O)c2cc3ccccc3o2)c1
    -1.7 | 0.678 | . | . | 0.3 | . | . | . | -6.0 | .
O=C(NC1CCCCC1)N1CCNCC1
    -2.8 | 0.625 | i | -0.4 | -15.2 | 23.4 | -0.3 | 27.2 | 0.2 | -0.8
O=C(c1ccc(COc2ccccc2[N+](=O)[O-])o1)N1CCCCC1
    1.1 | 0.724 | . | . | 10.6 | . | . | . | 0.0 | 5.3
O=c1c2ccccc2nc2n1C(CSc1ccc(Cl)cc1)CN2 (centres undefined)
    -0.4 | 0.785 | . | . | -4.7 | . | . | . | 0.1 | 2.1
COc1ccc(O)c(-c2cc(-c3cccs3)[nH]n2)c1
    -0.7 | 0.677 | . | . | 0.5 | . | . | . | -5.2 | 0.9
CCOC(=O)C1=NN(c2ccc(OC)cc2)C(c2ccccc2)CC1=O (centres undefined)
    1.3 | 0.682 | . | . | 4.6 | . | . | . | 0.7 | 8.1
COc1cc(CNc2ccc3[nH]c(=O)[nH]c3c2)ccc1OCc1ccc(C)cc1
    -7.9 | 0.698 | i | 1.1 | -5.5 | -2.0 | -3.2 | 0.6 | -0.1 | 2.4
C/C(=N\N1CCN(c2ccccc2)CC1)c1ccc(O)cc1
    . | . | i | -0.1 | -6.5 | 8.2 | -2.5 | 9.2 | . | .
CC1CCC(NC(=O)c2cc3c(s2)CCCC3)CC1 (centres undefined)
    4.2 | 0.684 | i | 0.1 | 3.8 | -9.9 | -0.9 | -4.7 | -0.4 | 5.3

Below each compound: Beta apoptosis | E coli growth | FGF22 binding | Ecoli rRNA inh RFP | T cruzi inh | Ecoli rRNA inh OD600 | AF4-AF9 inh | Ecoli rRNA inh | A1 inh | UCH37 DUB inh
COc1ccc2nc(-c3ccco3)c(-c3ccco3)nc2c1
    . | 0.647 | i | -5.2 | -10.4 | 9.3 | -38.3 | -4.6 | -0.5 | -222.7
CC(CCc1ccccc1)NC(=O)COC(=O)c1cccc2ccccc12 (centres undefined)
    -3.3 | 0.649 | . | . | 7.9 | . | . | . | -0.8 | -2.9
Cc1ccc(C(=O)C2C(c3cccs3)NC(=O)NC2(O)C(F)(F)F)cc1 (centres undefined)
    0.9 | 0.734 | . | . | -2.2 | . | . | . | -0.2 | 1.2
CC(C)Oc1ccc(C(=O)NCC(=O)O)cc1
    -1.5 | 0.671 | i | -2.7 | -9.3 | 11.4 | 5.7 | 11.7 | 0.6 | 0.1
COCC1OS(=O)(=O)NC(CC(=O)SC(C)(C)C)C1C (centres undefined)
    1.8 | 0.69 | i | 0.7 | -14.6 | 15.8 | -1.2 | 11.7 | 1.8 | -0.1
Cc1nc2ccc(NC(=O)c3nn(C(C)C)c(=O)c4ccccc34)cc2s1
    0.4 | 0.666 | . | . | -1.8 | . | . | . | 0.1 | 3.0
COc1cccc(C2NC(=O)NC(C)=C2C(=O)Nc2cccc(C)c2C)c1 (centres undefined)
    -0.1 | 0.698 | . | . | -0.3 | . | . | . | 0.4 | 3.0
[O-][n+]1cccc2c(Br)cc(Br)c(O)c21
    6.9 | 0.237* | i | -21.4 | 6.2 | -76.2 | 7.2 | -54.9 | -1.1 | 45.3*
CCS(=O)(=O)c1ccc2oc(Nc3ccccc3Br)nc2c1
    10.3 | 0.636 | i | -0.5 | 0.7 | 7.3 | . | 5.0 | -9.9 | 3.5
CCn1c(C(C)NC(=O)Cc2ccccc2)nc2ccccc21 (centres undefined)
    . | 0.731 | . | . | -1.0 | . | . | . | -1.0 | 1.6
Cn1ncc(Cl)c(Oc2ccc(Cl)cc2)c1=O
    -0.5 | 0.647 | . | . | -14.6 | . | . | . | 0.3 | 3.0
COc1ccccc1-c1nnc2sc(COc3ccc(F)cc3)nn12
    -2.8 | 0.685 | . | . | 5.5 | . | . | . | -0.6 | 1.6
